Screens: PubChem, Johns Hopkins Ion Channel Center
KCNQ2 block = KCNQ2 channel blockers in CHO-K1 cells – cell-based, FluxOR thallium flux, B-score, primary screen (AID 2156); actives 1.1% (n = 310,000); O88943; 20 min; active compounds read low; only compounds with negative scores are shown here; some inactives read as strong as hits; B-score at 10 µM;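 active = fluorescence ratio B-score at most minus 3 library SDs, with starting brightness B-score within 2 library SDs, cut at about -5.5 in these data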
Target sequence (O88943 whole entry, looked up): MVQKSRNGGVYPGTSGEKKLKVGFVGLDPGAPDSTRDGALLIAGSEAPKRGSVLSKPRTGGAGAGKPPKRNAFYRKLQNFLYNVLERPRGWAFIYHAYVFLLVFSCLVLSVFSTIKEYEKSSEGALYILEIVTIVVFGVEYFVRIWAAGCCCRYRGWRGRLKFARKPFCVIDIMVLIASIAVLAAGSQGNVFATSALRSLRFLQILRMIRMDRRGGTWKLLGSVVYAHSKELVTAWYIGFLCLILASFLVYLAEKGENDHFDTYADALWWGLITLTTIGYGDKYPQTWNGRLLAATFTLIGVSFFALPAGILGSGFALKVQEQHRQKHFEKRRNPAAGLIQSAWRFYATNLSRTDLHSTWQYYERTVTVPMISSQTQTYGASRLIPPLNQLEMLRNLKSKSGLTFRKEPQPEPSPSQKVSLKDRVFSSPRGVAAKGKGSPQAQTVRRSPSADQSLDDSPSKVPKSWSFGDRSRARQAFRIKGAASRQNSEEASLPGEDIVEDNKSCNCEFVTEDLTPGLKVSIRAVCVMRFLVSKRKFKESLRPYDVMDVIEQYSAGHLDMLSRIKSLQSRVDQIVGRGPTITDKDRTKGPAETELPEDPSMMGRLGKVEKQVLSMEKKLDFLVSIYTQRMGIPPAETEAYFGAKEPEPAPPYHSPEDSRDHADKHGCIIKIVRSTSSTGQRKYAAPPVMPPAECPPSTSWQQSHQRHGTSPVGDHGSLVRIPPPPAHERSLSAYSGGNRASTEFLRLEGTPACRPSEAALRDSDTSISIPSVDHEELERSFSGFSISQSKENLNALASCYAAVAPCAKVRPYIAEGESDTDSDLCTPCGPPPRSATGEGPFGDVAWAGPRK
KCNQ2 block baseline = second read-out of KCNQ2 block, no call of its own (marks repeat the call); B-score; measured here: initial fluorescence intensity artifact check;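 brightness before thallium and not channel activity; 0 = typical well and far values either way flag optical interference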
Starred values were filed as active, the others as inactive; i = inactive.

SMILES	KCNQ2 block	KCNQ2 block baseline
CN(C)CCNC(=O)c1cc(Br)ccc1Cl	i	-0.12
C=CC(=O)N=c1sc2ccccc2n1-c1ccccc1	i	0.23
CCCN1CCC(N2CCCC(C(=O)O)C2)CC1 (stereo not drawn)	i	0.52
Cc1cccc(C(=O)N2CCN(Cc3ccc4c(c3)OCO4)CC2)c1	i	2.21
CCCCNC(=S)Nc1ccccc1Cc1ccccc1	i	1.42
COc1ccc(C(=O)N2CCN(S(=O)(=O)c3cc(Cl)ccc3OC)CC2)cc1	i	0.83
O=C(CN(C1CCCCC1)S(=O)(=O)c1ccc(F)cc1)NCc1ccncc1	i	-0.83
O=C(C1CCCN(S(=O)(=O)Cc2ccccc2)C1)N1CCC(Cc2ccccc2)CC1 (stereo not drawn)	i	-0.68
CCOc1ccccc1C1CC(=O)Nc2c1c(=O)n(C)c(=O)n2C (stereo not drawn)	i	1.84
O=C(NC(=S)NCCN1CCOCC1)c1cccc(Cl)c1	i	-0.24
O=C(NCc1cccnc1)/C(=C/c1ccc(-c2ccc(Cl)cc2)o1)S(=O)(=O)c1ccccc1	-6.15*	-1.82*
O=C(Nc1cnn(Cc2ccc(Cl)cc2Cl)c1)c1cc(-c2cccs2)on1	i	-0.33

Of the compounds above, these have a halogen:
SMILES	KCNQ2 block	KCNQ2 block baseline
CN(C)CCNC(=O)c1cc(Br)ccc1Cl	i	-0.12
COc1ccc(C(=O)N2CCN(S(=O)(=O)c3cc(Cl)ccc3OC)CC2)cc1	i	0.83
O=C(CN(C1CCCCC1)S(=O)(=O)c1ccc(F)cc1)NCc1ccncc1	i	-0.83
O=C(NC(=S)NCCN1CCOCC1)c1cccc(Cl)c1	i	-0.24
O=C(NCc1cccnc1)/C(=C/c1ccc(-c2ccc(Cl)cc2)o1)S(=O)(=O)c1ccccc1	-6.15*	-1.82*
O=C(Nc1cnn(Cc2ccc(Cl)cc2Cl)c1)c1cc(-c2cccs2)on1	i	-0.33

Remaining list, next part.
SMILES	KCNQ2 block	KCNQ2 block baseline
O=C(O)CSCC(=O)N1CCCN(c2ccc(C(F)(F)F)cn2)CC1	i	-0.57
COc1ccc(-c2nnc3sc(C(C)N4C(=O)c5ccccc5C4=O)nn23)cc1 (stereo not drawn)	i	-1.64
COCCN(CC(=O)Nc1ccccc1C)S(=O)(=O)c1ccc(S(=O)(=O)N2CCCC2)cc1	i	2.87
CCOC(=O)C1CCN(c2nc3c(C)cccn3c(=O)c2/C=C(\C#N)S(=O)(=O)c2ccccc2)CC1	i	-0.37
CCN(CC)S(=O)(=O)c1cc(-c2nn(C)c(=O)c3ccccc23)ccc1C	i	-1.43
COc1ccccc1N(Cc1ccccc1)S(=O)(=O)c1cccc(C(=O)Nc2ccc(C)cn2)c1	-7.14*	0.72*
CCCCn1c(SCC(=O)N2CCCC2)nc2cc(S(N)(=O)=O)ccc21	i	-0.51
COC(=O)CN1C(=S)N(c2ccc(Cl)cc2)C(=O)C1CC(=O)Nc1ccc(F)cc1 (stereo not drawn)	i	0.02
COc1ccccc1NC(=S)NCCc1ccc(F)cc1	i	0.87
COCC(=O)N1CCC(Oc2cccc(C(=O)NCc3ccccn3)c2)CC1	i	-0.83
Fc1ccccc1OCCn1c(=S)[nH]c2ccccc21	i	0.89
COc1ccc(S(=O)(=O)N2CCOC23CCN(S(=O)(=O)c2cc(C)ccc2OC)CC3)cc1	i	2.3
CCC(C)Sc1nc2c(c(=O)[nH]c(=O)n2C)n1CCc1ccccc1 (stereo not drawn)	i	0.65
CS(=O)(=O)C1=NN2C(=N)/C(=C\c3ccc(OC(=O)c4ccco4)cc3)C(=O)N=C2S1	i	-1.17
COc1cc(C)nc(N(Cc2ccccc2)S(=O)(=O)c2ccccc2)n1	i	0.5
O=C(O)CCn1[nH]c(=O)c2ccccc2c1=O	i	-0.03
Cc1cc(NC(=O)C(C)SCC(=O)OCC(=O)N(Cc2ccccc2)C(C)(C)C)no1 (stereo not drawn)	i	-1.71
O=C(Nc1ccc2ccccc2c1)NC1CCS(=O)(=O)C1 (stereo not drawn)	i	0.89
OC(CNCC1CCCO1)Cn1c2ccccc2c2ccccc21 (stereo not drawn)	i	-1.29
CCCn1c(SCc2ccc(Cl)cc2)nc2c1c(=O)[nH]c(=O)n2C	i	-0.55
COc1ccccc1NC(=O)COC(=O)c1ccc2c(c1)nc(C)n2-c1ccccc1	i	0.2
CN(C)c1ccc(/C=C/C=N/Nc2nc(N3CCOCC3)nc(N3CCOCC3)n2)cc1	i	-2.19
COc1ccc(NC(=O)CSc2nc3ccccc3nc2N2CCOCC2)c(OC)c1	i	3.21
c1ccc(C2c3[nH]c4ccccc4c3CCN2Cc2cccn2-c2cccnc2)nc1 (stereo not drawn)	i	0.15
CCOc1ccc(S(=O)(=O)Nc2ccc(C(=O)NCC(c3ccccc3)N(C)C)cc2)cc1 (stereo not drawn)	i	0.82
Cc1cc2nn(-c3ccc(F)cc3)nc2cc1N	i	-0.03
COc1ccc(C(CCN2CCCC2)c2c(OC)cc(OC)c3c(-c4ccccc4)cc(=O)oc23)cc1 (stereo not drawn)	i	1.08
COc1ccc(N(CC(=O)N2CCOCC2)S(=O)(=O)c2ccccc2)cc1Cl	i	-1.35
O=C(Cn1c(NCCO)nc2ccccc21)c1ccc([N+](=O)[O-])cc1	i	-0.95
O=C1CCC(=O)N1c1ccc(S(=O)(=O)Nc2cccc(Br)c2)cc1	i	-1.12
COc1cccc(CN(C(=O)c2cccs2)C2CCS(=O)(=O)C2)c1 (stereo not drawn)	i	-0.33
CC(CN1CCN(C)CC1)OC(=O)c1ccccc1Cl (stereo not drawn)	i	-0.06
CC(=O)Nc1c(I)c(NC(C)=O)c(I)c(C(=O)O)c1I	i	-0.59
CCOC(=S)SCC(=O)Nc1nc(-c2ccc(Br)cc2)cs1	i	0.01
Cc1cc(OC(C)C(=O)NCc2ccccn2)c2c(C)cc(=O)oc2c1 (stereo not drawn)	i	1.15
CCCC(=O)Nc1ccc(NC(=S)NC(=O)c2ccccc2[N+](=O)[O-])cc1	i	3.75
C=CCn1cnc2scc(-c3ccc(C)cc3)c2c1=O	i	1.43
Cc1ccc2nsnc2c1NC(=O)COc1ccccc1	i	0.7
Cc1ccc(C2=NC3(CCCCC3)N=C2SCC(=O)Nc2ccc3c(c2)OCCO3)cc1	i	-0.07
COc1ccc(NC(=O)c2ccc(Cc3ccc(C)cc3)o2)cc1	i	-0.13
CC1C/C(=N/Nc2ccc([N+](=O)[O-])cc2[N+](=O)[O-])CC(C)(C)C1 (stereo not drawn)	i	0.69
O=C(CN1CCCCC1)Nc1cc(Cl)ccc1Cl	i	1.07
Cc1cccc(-c2cnn(-c3ccccc3)c2N)c1	i	-0.01
COCCNC(=O)c1c[nH]c2ccc(S(=O)(=O)N3CCOCC3)cc2c1=O	i	1.51
COc1ccc(CN2[C@@H](CC(=O)O)c3cc(F)ccc3S2(=O)=O)cc1	i	-0.44
O=C(Cc1c(F)cccc1Cl)NCCCn1ccnc1	i	1.98
CC1CCCCN1C(=O)CSc1nc2ccccc2n1CC(=O)N1CCc2ccccc21 (stereo not drawn)	i	0.3
Cc1ccc(CN2CCN(/N=C/c3ccc(C(F)(F)F)cc3)CC2)c(C)c1	i	0.97
Cc1cccc(NC(=O)C(CC(C)C)NC(=O)C2CCC(C)CC2)n1 (stereo not drawn)	i	0.8
CC(C)C[C@H](NC(=O)N1c2ccccc2NC(=O)[C@@H]1C(C)C)C(=O)N1CCC[C@@H]1C(=O)O	i	-2.01
COC(=O)c1cc(NC(=O)c2ccccc2)c(=O)oc1C/C=N\OCc1ccc(Cl)cc1Cl	i	0.7
CCOc1ccc(-n2c(-c3ccc(Br)cc3)c[n+]3c2CCCCC3)cc1	i	-0.21
CSc1ccc(/C=N/n2c(C)cc(C)cc2=O)cc1	i	-0.36
C=CCN1C(=O)CS/C1=N/c1nccs1	i	2.64
COC(=O)CSc1cc(C)nc2ccc(OC)cc12	i	-0.13
COCCOC(=O)c1c(C)oc2ccc(OC(=O)c3cccs3)cc12	i	-0.33
Cc1oc(-c2cccc(Cl)c2)nc1CS(=O)(=O)CC(=O)NC1CC1	i	-0.38
O=C(COC(=O)CSc1cc(Cl)ccc1Cl)NCc1ccc2c(c1)OCO2	i	-0.42
C[C@H](NC(=O)c1nc[nH]c1C(=O)NCC(=O)OC(C)(C)C)C(=O)OCc1ccccc1	i	-3.33
CCOc1ccc(Oc2c(C)oc3cc(O)ccc3c2=O)cc1	i	-0.22
Following part
SMILES	KCNQ2 block	KCNQ2 block baseline
CC(=C/c1ccccc1)/C=N/N1CCN(Cc2ccc(C)cc2)CC1	i	-1.97
COc1ccccc1N1CCN(S(=O)(=O)c2cc(C(F)(F)F)cc(C(F)(F)F)c2)CC1	i	0.02
CC(=O)c1nn(-c2cccc(Br)c2)cc1C(=O)c1ccccc1	i	3.08
CCN(Cc1ccc2c(c1)OCO2)C(=O)/C=C/c1cccc(Br)c1	i	0.25
C=C(C)C(=O)N1CC2(CC(c3cccc(NC(=O)c4ccccc4)c3)=NO2)C[C@@H]1C(N)=O (stereo partly drawn)	i	0.17
COc1ccccc1N1CCN(/N=C/C=C/c2ccccc2[N+](=O)[O-])CC1	i	-0.02
CC(=O)Nc1ccc(NC(=O)C(C)OC(=O)CNS(=O)(=O)c2cccc(Cl)c2)cc1 (stereo not drawn)	i	0.24
CCNC(=S)N/N=C(\C)c1ccc2ccccc2c1OC(F)F	i	-2.5
NC(=O)C1CCN(C(=O)CN(c2cccc(Cl)c2)S(=O)(=O)c2ccccc2)CC1	i	-0.02
Cc1ccc(NC(=O)OCCN2CCN(Cc3ccccc3)CCC2=O)cc1	i	0.34
CCCSc1nsc(N)n1	i	1.29
O=C(Nc1ccc(F)cc1)C1CCCO1 (stereo not drawn)	i	0.87

Grouped by structure, those above with bromine.
SMILES	KCNQ2 block	KCNQ2 block baseline
CN(C)CCNC(=O)c1cc(Br)ccc1Cl	i	-0.12
O=C1CCC(=O)N1c1ccc(S(=O)(=O)Nc2cccc(Br)c2)cc1	i	-1.12
CCOC(=S)SCC(=O)Nc1nc(-c2ccc(Br)cc2)cs1	i	0.01
CCOc1ccc(-n2c(-c3ccc(Br)cc3)c[n+]3c2CCCCC3)cc1	i	-0.21
CC(=O)c1nn(-c2cccc(Br)c2)cc1C(=O)c1ccccc1	i	3.08
CCN(Cc1ccc2c(c1)OCO2)C(=O)/C=C/c1cccc(Br)c1	i	0.25

Other records:
SMILES	KCNQ2 block	KCNQ2 block baseline
COc1cccc(C(=O)Nc2ccc3c(cc2=O)[C@@H](NC(C)=O)CCc2cc(OC)c(OC)c(OC)c2-3)c1	i	5.97
COc1ccc(C(=O)Nc2nc3ccccc3[nH]2)cc1OC	i	-1.6
COC(=O)C(C)Sc1nnc(Cc2cc(=O)[nH]c(=O)[nH]2)n1-c1cc(C)ccc1C (stereo not drawn)	i	-0.58
O=C(CSc1nc(-c2ccccc2)cs1)NCCN1C(=O)CSC1=O	i	0.17
COc1ccc(CN2CCN(C(=O)c3cccs3)CC2)cc1	i	1.53
CCOc1ccc(C(C)=O)cc1CN1C(=O)C(=O)N(CC)C1=O	i	-0.66
COc1ccc(N2CC(C(=O)NCCc3ccc(Cl)cc3)CC2=O)c(OC)c1 (stereo not drawn)	i	0.9
O=C(Nc1ccc2c(c1)OCCO2)c1cccnc1Oc1ccc(Cl)cc1	i	-1.2
CN(Cc1ccccc1F)C(=O)COc1ccc(C(=O)c2ccccc2)cc1	i	2.49
COCCn1c(-c2ccccc2)cnc1SCC(=O)Nc1cccc2ccccc12	i	0.5
C=CCN1C(=O)c2ccccc2Sc2ccc(C(=O)NCCC)cc21	i	-0.64
Cc1cc(C)cc(NC(=O)CN2CCC(NC(=O)c3cccc(F)c3)CC2)c1	i	1
CCc1cccc2sc(N3CCN(C(=O)c4ccc([N+](=O)[O-])o4)CC3)nc12	i	1.41
Cc1ccc(C)c(Cn2nnc3c(=O)[nH]c(C4CCCN(C(=O)c5cccs5)C4)nc32)c1 (stereo not drawn)	i	-1.23
COc1cccc(NC(=O)C2C3C=CC(O3)C2C(=O)O)c1 (stereo not drawn)	i	2.09
O=C(O)COc1ccc(NC(=O)c2ccc3c(c2)C(=O)N(Cc2ccccc2)C3=O)cc1	i	0.98
S=c1nc[nH]c2c1ncn2C1CCCO1 (stereo not drawn)	i	0.67
CCC1=NN2C(=N)/C(=C/c3cc(C)n(Cc4ccccc4)c3C)C(=O)N=C2S1	i	0.16
Cc1cc(C)c2cc(CN(Cc3ccco3)C(=O)NCc3ccccc3)c(=O)[nH]c2c1	i	-0.02
CCC(C)NC(=O)Cn1c(COc2ccc(Cl)cc2Cl)nc2ccccc21 (stereo not drawn)	i	0.92
COc1ccc(-n2cnc3sccc3c2=O)cc1	i	-1.47
Cn1c(SCC(=O)Nc2cccc(S(=O)(=O)N3CCOCC3)c2)nnc1-c1ccncc1	i	0.26
COc1ccc(-n2ncc(C(C)NS(=O)(=O)c3cc(F)ccc3C)c2C)cc1 (stereo not drawn)	i	1.73
COC(=O)[C@@H](NC(=O)NCc1ccc(F)cc1)C(C)C	i	0.61
C=CCOC(=O)C1=C[C@@H](c2csc3ccccc23)C[C@@H](OCCCCO)O1	i	2.63
O=C(c1cccs1)[C@@H]1[C@@H]2C(=O)N(Cc3ccc4c(c3)OCO4)C(=O)[C@@H]2C2c3ccccc3C=CN21 (stereo partly drawn)	i	0.68
O=c1[nH][nH]c(C(F)(F)F)c1C=NCc1ccccc1Cl	i	0.35
CCOC(=O)C1CCN(C(=O)c2cc3cc(Cl)ccc3[nH]2)CC1	i	0.84
CC(C)c1ccc(C(O)P(=O)(OCc2ccccc2)c2ccc(N(C)C)cc2)cc1 (stereo not drawn)	i	0.03
COC(=O)c1c(NC(=O)COC(=O)c2ccc(Cl)nc2)sc(C)c1C	i	0.05

These rows are one share of the data; the hit share may differ from the screen's.
